Bioassay records deposited in PubChem by Fisher Drug Discovery Resource Center.
NPYLR7 agonist: mosquito NPYLR7 agonism. HEK293T NPYLR7/Galpha15, GCaMP6s calcium fluorescence. activation, % at 10 µM. hit rate 0.15% among 270,000; in the data active = activation above about 40%;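 also: 0% = vehicle and 100% = reference agonist at the receptor; some compounds past the cut are filed as inactive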
NPYLR7 agonist max-min: recorded beside NPYLR7 agonist, whose call it bears; activation, %; measured here: Max-Min RFU normalised activation; some inactives read as strong as hits;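 span of the calcium signal over five minutes; 0% = vehicle and 100% = native peptide agonist; compound fluorescence can raise it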
* hit, by the source's call. Only part of the results is shown (hit frequency here may not be typical).

structure,NPYLR7 agonist,NPYLR7 agonist max-min
CCC(Nc1ccccc1)C(=O)N1CCn2nc(C(=O)N3CCCC3)cc2C1 (stereo not given),12,0
O=C1CC(C(=O)Nc2ccc(OCc3noc(C4CC4)n3)cc2)CC(=O)N1,-1,-3
O=C(NCc1ccco1)c1coc(CN(CCc2c[nH]c3ccccc23)Cc2cccc(Oc3ccccc3)c2)n1,1,4
CCCSc1nsc(NC(=O)CN2CCCC(C(F)(F)F)C2)n1 (stereo not given),4,11
O=CNc1cc(-c2ccccc2)cn2c(-c3ccc(F)c(Cl)c3)cnc12,-4,-9
Cn1cc(S(=O)(=O)Nc2ccccc2-c2nnc3n2CCCCC3)cn1,9,5
COc1ncc(-c2nccn2Cc2cnn(C(C)C)c2)cn1,10,-3
CC(C)C(=O)N1CCN(Cc2nnnn2-c2ccc(F)cc2)CC1,-2,-3
CN(C)c1ccc(C2c3sc4ccccc4c3OC(=N)C2C#N)cc1 (stereo not given),17,7
CCCC(C)NC(=O)c1cccc(-n2ccc(C)n2)c1 (stereo not given),0,-1
CCc1oc(C(=O)Nc2ccc(C)c(S(N)(=O)=O)c2)cc1C,-20,-22
CCC(NC(=O)c1cc(Cl)cc(Cl)c1)c1noc(C)n1 (stereo not given),5,2
CCNC(=O)Cc1csc(-c2cccc(Br)c2)n1,-6,-8
COc1ccccc1OCC(=O)NCC1CCCN(C(=O)Cn2nc3ccccc3n2)C1 (stereo not given),7,3
O=C(Cc1ccc(F)cc1)N1CCOC(c2ccccc2)C1 (stereo not given),-3,-8
COc1ccc(/C=C/C2=NC(=C\c3cccc(Br)c3)/C(=O)O2)cc1,-1,-3
Cc1nn(-c2ccccc2)c(C)c1NS(=O)(=O)c1ccc2c(c1)CC(=O)N2C,4,2
CCOc1ccc(CN2CCCC(O)(CO)CC2)c(OCC)c1C (stereo not given),-5,-13
Cc1cc(C(=O)CSc2nnc(N)s2)c(C)n1C(C)C,0,2
O=C(CCn1nnnc1CN1CCOCC1)N1CCN(Cc2cccc(Cl)c2)CC1,7,1
O=C(c1c(O)c2ccccc2oc1=O)C1CCC1,2,-3
O=C(NCCc1ccc(F)cc1)C1CCCN(S(=O)(=O)c2cccs2)C1 (stereo not given),14,8
Cc1cnc(C)c(N2CCCC(CO)(CCOc3ccccc3)C2)n1 (stereo not given),12,7
CC1(C(=O)NCc2cccnc2)CCN1Cc1ccc(-n2ccnc2)cc1 (stereo not given),-2,-4
CCOC(=O)N1CCN(c2cc(Oc3ccc(F)cc3F)ncn2)CC1,-8,0
CCCc1c(C)nn(-c2ccc(C(=O)Nc3ccc(Oc4ccccc4)cc3)cc2)c1C,0,-4
CN(C)C=Nc1c(C#N)cnn1-c1ncnc2sc3c(c12)CCC3,-14,-17
CCn1ccnc1CN1CCC(O)(c2cccc(C(F)(F)F)c2)CC1,8,4
Cc1ccccc1C(=O)N(Cc1cccnc1)c1nc2c(F)cccc2s1,-8,-8
O=C(Nc1ccc(Cl)cn1)N1CC[C@H](O)C1,2,-6
COc1ccc(-c2oc(N)c(C#N)c2-c2ccc(OC)cc2)cc1,11,7
Cc1cccnc1CN1CCN(Cc2ccccc2C(=O)O)CC1,8,6
CCC(=O)Nc1ccc(S(=O)(=O)NCCn2nc(-c3ccncc3)ccc2=O)cc1,-4,-5
N#Cc1ccc(S(=O)(=O)Nc2cnn(-c3ccncc3)c2)c(F)c1,0,-3
O=C(NCCCN1CCCC1=O)C(C1CCCC1)N1CCN(C(=O)c2ccccc2)CC1 (stereo not given),-2,2
O=C(COc1ccc(Cl)cc1Cl)NCCNc1cc(-n2cccn2)ncn1,-4,-11
CCN(CC(=O)N1CCc2cc(S(N)(=O)=O)ccc21)Cc1ccc2c(c1)OCO2,0,-1
O=C(CNC1CCCCC1)N(Cc1ccccc1)Cc1ccco1,13,13
O=C(CN1CCOc2ccccc2C1)N1CC=C(c2ccccc2)CC1,22,11
Cc1nsc(N2CCN(C(=O)Cc3cccc(O)c3)CC2)n1,4,6
COc1ncc(CN2CCCC(c3n[nH]c(=O)n3-c3ccccc3)C2)cn1 (stereo not given),7,4
C=CCONC(=O)c1ccc2nc(-c3cccnc3)[nH]c2c1,-1,8
O=C(CCc1csc(NC(=O)c2ccc[nH]c2=O)n1)NCc1ccc(F)cc1,-14,-20
CCOC(=O)C1(Cc2ccccc2C)CCCN(C(=O)Nc2cc(OC)ccc2OC)C1 (stereo not given),-6,-8
CCCCN1C(=O)C(=Cc2c(NCC3CCCO3)nc3c(C)cccn3c2=O)SC1=S (stereo not given),1,-1
Cc1ncsc1CCC(=O)NCc1snnc1C(C)C,-4,-8
COc1ccc(C2CC(C(F)(F)F)n3ncc(C(=O)NC(C)(C)C)c3N2)cc1 (stereo not given),-4,-9
Cc1ccc(Cl)cc1Nc1ncccc1C(=O)NCCC(c1ccccc1)c1ccccc1,-5,-12
Cc1c(F)cccc1N1C(=O)CSC1c1cccc(NC(=O)c2ccc(Br)cc2)c1 (stereo not given),-20,-9
CCC(=O)C1=C(c2ccc(OC)c(OC)c2)N(C(=O)CC)n2cnnc2S1,7,3

Reformatted: entries from further up
CCCCN1C(=O)C(=Cc2c(NCC3CCCO3)nc3c(C)cccn3c2=O)SC1=S (stereo not given)
  NPYLR7 agonist: 1 | NPYLR7 agonist max-min: -1

Cc1ncsc1CCC(=O)NCc1snnc1C(C)C
  NPYLR7 agonist: -4 | NPYLR7 agonist max-min: -8

COc1ccc(C2CC(C(F)(F)F)n3ncc(C(=O)NC(C)(C)C)c3N2)cc1 (stereo not given)
  NPYLR7 agonist: -4 | NPYLR7 agonist max-min: -9

Exported with each value named: 2 of the compounds above
mol: CCC(Nc1ccccc1)C(=O)N1CCn2nc(C(=O)N3CCCC3)cc2C1 (stereo not given)
  NPYLR7 agonist: 12 | NPYLR7 agonist max-min: 0

mol: O=C1CC(C(=O)Nc2ccc(OCc3noc(C4CC4)n3)cc2)CC(=O)N1
  NPYLR7 agonist: -1 | NPYLR7 agonist max-min: -3

New compounds follow
structure,NPYLR7 agonist,NPYLR7 agonist max-min
COc1ccc(CN(C(=O)C(C)C)c2ccncc2)cc1,2,1
CC(NC(=O)c1cccc(NC(N)=O)c1)c1ccc(OC(F)(F)F)cc1 (stereo not given),7,4
Oc1c2cccnc2cn1Cc1cc(-c2ccco2)on1,4,-1
C=c1cc(C)n(CC(=O)Nc2ccccc2)c(=O)c1=C1N=C(c2ccc(F)cc2)NO1,0,-4
CCC(C)N(Cc1ccc(OS(=O)(=O)C(C)C)cc1)C(=O)C1CCC1 (stereo not given),14,17
CCCNC(=O)N1CCN(c2cc(OC)cc(OC)c2)C(=O)C1C (stereo not given),22,20
Cc1nc(CN(C)C(=O)C2CCC(=O)N(CCc3cccc(F)c3)C2)cs1 (stereo not given),4,4
CC1CCCN(C(=O)COC(=O)c2c(NC(=O)c3ccco3)sc3c2CCC3)C1 (stereo not given),-1,37
Cc1c(C(=O)NCCC(C)C)cc(-c2ccccc2)n1-c1ccc(F)cc1F,-3,2
COCC(=O)Nc1ccc(-n2nc(OCCc3ccc(OC)cc3)nc2-c2cccc(OC)c2)cc1,-1,4
COc1c(Cl)cc(C(=O)Nc2ncn[nH]2)cc1Cl,0,0
CCOc1ccccc1C(=O)Nc1ccc(N2CCN(C(=O)c3ccc(N(C)C)cc3)CC2)nc1,4,0
COc1ccc(CCNC(=O)CCc2ccc(-c3ccc(F)cc3)n2-c2ccc(NC(C)=O)cc2)cc1,-2,-3
N=C1/C(=C\c2ccc(Br)o2)C(=O)N=C2SC(C34CC5CC(CC(C5)C3)C4)=NN12,-2,-4
Cc1ccc(NC(=O)c2ccc(S(N)(=O)=O)c(C)c2)cc1C,2,1
CC1C(=O)N(c2ccc(Oc3ccccc3)cc2)CCN1C(=O)C1CC1 (stereo not given),-4,2
CCCCNC(=O)Cn1nc(C(F)(F)F)c(Cl)c1C,3,2
O=C(Nc1cccnc1)N1CCOC(c2ccccc2)C1 (stereo not given),4,4
CCOCC(O)CNC(=O)c1cc(COc2ccc(F)cc2Cl)on1 (stereo not given),18,5
O=C(NCCS(=O)(=O)N1CCN(c2ccc(F)cc2)CC1)C(c1ccccc1)c1ccccc1,-4,-5
Clc1ccccc1Sc1nc2ccccc2n2cnnc12,6,7
CC1(C)CC(C(=O)N2CCC(n3cc(-c4ccccn4)nn3)CC2)CCO1 (stereo not given),3,1
COc1ccc(-c2cnn3c(C)c(C(=O)NCC4COC(C)(C)O4)cnc23)cc1 (stereo not given),6,2
Cn1c(CCc2ccccc2O)nnc1SCC(=O)O,2,1
Cc1ccnc(C(NC(=O)c2ccc(Cn3nnnc3C)cc2)C2CC2)c1 (stereo not given),17,11
CN(C)c1ccc(C(=O)NCCc2nc3cc(Cl)ccc3s2)cc1F,-8,-9
Cc1noc(C)c1S(=O)(=O)N1CCC(C(=O)N(c2ccc3[nH]ccc3c2)C(C)CC(C)C)CC1 (stereo not given),3,13
Cc1ccc2nc(COc3ccc(C(=O)NCc4ccco4)cc3)cn2c1,18,14
CC(=O)c1cc(C(=O)Nc2ccc(Cl)cc2)n(C)c1,7,5
O=C(NCc1ccccn1)c1ccc(NC(=O)c2ccco2)cc1,19,10
Cc1c(C)n2c3c(=O)n(CCC(C)C)c(=O)n(C)c3nc2n1-c1ccccc1,5,13
Cc1cc(C)c[n+](C2=C(c3c(C)[nH]n(-c4ccccc4)c3=O)C(=O)N(CC(C)C)C2=O)c1,-5,-4
CC(C)(C#N)C(=O)Nc1ccc2nc(Cc3ccccc3)oc2c1,-3,-3
CC(Sc1nnc(C2CC2)n1C1CC1)C(=O)NC12CC3CC(CC(C3)C1)C2 (stereo not given),-1,-2
CC1(C(=O)NCCc2c[nH]c3ccccc23)CCN1Cc1ccc(-c2ccccc2)o1 (stereo not given),6,-2
C=CCc1c(C)nc2nc(SCC3=NC4C=CC=CN4C(=O)C3)nn2c1C (stereo not given),20,10
CCc1nc2ccc(C(=O)Nc3cccc(OCC(=O)N(C)C)c3)cn2c1N(C)Cc1ccc(N(C)C)cc1,6,-1
COc1cc(-c2ncn(/C=C\C(=O)OC(C)C)n2)cc(C(F)(F)F)c1,3,-5
Cc1ccccc1C1c2ccsc2CCN1CC(=O)N1CCN(C(=O)COCc2ccccc2)C(C)C1 (stereo not given),-4,-4
NCC1CCN(c2ncccn2)CC1,0,2
Cc1ccc(Nc2nnc(SC(C)C(=O)N3CCCC3)s2)cc1 (stereo not given),10,8
Cc1cc(C)nc(SCc2cc(=O)c(OC(=O)c3cccc(C(F)(F)F)c3)co2)n1,-14,-6
CCc1c2c(nc3sc(C(=O)N4CCOCC4)c(N)c13)CC(C)(C)CC2=O,-5,-8
CSc1ccccc1C(=O)NCc1c(C)ncc2c1CCN(C(=O)c1cc(F)c(F)cc1F)C2,19,4
CCc1cn[nH]c1C1CCCN(C(=O)c2cccc(-n3cnnc3)c2)C1 (stereo not given),2,1
Cc1c(C(C)NC(=O)Cc2csc(Cc3ccccc3)n2)cnn1C (stereo not given),5,1
COCC(=O)N(Cc1csc(COc2ccccc2C(C)C)n1)C1CC1,22,14
Cc1ccc(N2C(=O)CSC2c2ccccc2NC(=O)CCl)cc1 (stereo not given),1,3
Cc1cc(C(C)(C)C)cc(C)c1CC(=O)NCCNC(=O)c1ccco1,4,2
CN1CCN(C(=O)CCCc2nnc3n(C)c(=O)c4sccc4n23)CC1,5,2

Additional structures:
structure,NPYLR7 agonist,NPYLR7 agonist max-min
Cc1nnc(SCc2ccc(C(=O)NCc3ccc4c(c3)OCO4)cc2)n1-c1ccc(F)cc1,-5,-2
COc1ccccc1N1CCN(/C(=C/C#N)c2ccc(F)cc2)CC1,3,2
COCC(=O)N1CCN(C(C(=O)Nc2ccc3c(c2)OCO3)C2CCCC2)CC1 (stereo not given),16,19
CC(C)CN(Cc1ccccn1)C(=O)CCc1cccnc1,-2,-5
O=C(NCCN1C(=O)SC(=Cc2ccccc2)C1=O)C1CCC1,1,52
CCc1ccc(C(=O)N2CCC3(CC2)SCCN3C(=O)c2cccs2)cc1,-2,5
CC(C)C1CN(C(=O)c2ccc(-n3cccn3)cc2)CCCN1CC1CC1 (stereo not given),0,8
CCOc1ccc(C(C2Sc3nc(C)nn3C2=O)N2CCC(C(=O)OC)CC2)cc1OC (stereo not given),2,0
CC(C)(C)c1ccc(-c2ccnc(N3CCN(S(=O)(=O)c4ccc(Cl)cc4)CC3)n2)cc1,4,-1
CN1CC(CNc2cnc3ccc(Cl)cc3n2)CC1=O (stereo not given),9,3
Cc1cccnc1CNCC1(O)CCCN(Cc2cccc(F)c2F)C1=O (stereo not given),7,4
CN(C)CCNC(=O)c1ccc(-c2cc(-c3ccc(-c4ccccc4)cc3F)cnc2N)cc1,4,-4
O=C1CN(C2CCSC2)CC(O)CN1C1CCCCC1 (stereo not given),-2,-3
Cn1nc(C(C)(C)C)cc1C(=O)N1CCN(C(c2ccccc2)c2ccc(F)cc2)CC1 (stereo not given),5,-4
CC(C)c1nc(CCN(C)S(=O)(=O)NCc2ccccc2)no1,0,12
COc1ccccc1N(Cc1nnc2n1CCCCC2)C(=O)Nc1cccc(C)c1,1,2
COc1cccc(OCc2ccccc2)c1C(=O)Nc1ccc(C(C)(C)C)cc1,-9,-13
